# D2 ag: human D2 receptor agonism in beta-arrestin assay; DiscoveRx PathHunter D2 beta-arrestin, luminescence, 90 min; 100% = 57 uM dopamine signal; activation, % (test concentration not listed); 0.084% of 360,000 active; AID 624465; in the data active = activation above about 40%; inconclusive = about 15% to 40%; inactive = below about 15%; also: compound concentration not given in the record; the text of the record calls up to 30% inactive
# Target sequence (P14416 whole entry, looked up): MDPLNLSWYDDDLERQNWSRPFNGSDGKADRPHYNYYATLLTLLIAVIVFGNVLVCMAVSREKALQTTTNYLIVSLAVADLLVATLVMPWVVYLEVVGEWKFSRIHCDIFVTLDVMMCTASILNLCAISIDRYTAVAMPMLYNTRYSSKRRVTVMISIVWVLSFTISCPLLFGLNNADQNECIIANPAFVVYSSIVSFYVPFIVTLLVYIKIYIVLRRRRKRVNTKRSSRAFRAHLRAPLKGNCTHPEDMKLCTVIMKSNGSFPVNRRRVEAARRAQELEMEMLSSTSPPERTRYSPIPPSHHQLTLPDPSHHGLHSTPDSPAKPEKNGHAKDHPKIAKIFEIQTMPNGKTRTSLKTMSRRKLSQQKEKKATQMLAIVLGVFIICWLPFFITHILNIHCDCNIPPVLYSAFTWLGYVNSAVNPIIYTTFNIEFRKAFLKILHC
#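 DiscoveRx PathHunter D2 beta-arrestin cells (2,100/well) attached overnight, then compound-stimulated 90 min at 37 C in HBSS/10 mM HEPES/0.1% Tween-20 buffer; beta-galactosidase complementation read by luminescence after 1 h at ambient temperature. Dopamine 57 uM final (EC100) as control.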
# ClpP mod: qHTS Assay for Activators of ClpP. purified B. subtilis ClpP, FRET peptide cleavage, 20 min. AID 651965, 2013. Potency, µM (highest dose often 57.5 µM), for inactives: top-dose activity change, negative = active. 1.9% of 340,000 active. ATP-dependent Clp protease proteolytic subunit (Bacillus subtilis (strain 168)), P80244; active = well fitted falling curve with a large enough effect; inconclusive = small, poorly fitted or top-dose-only effect; inactive = no such curve, though single readings can be large or run the other way; also: potency is read from the fitted curve at half-maximal effect; the source files actives as falling curves though it sought activators and does not explain the sign; nearly all actives have a fitted effect of over 65% in size; many hits overshoot -100%
# Target sequence (P80244 whole entry, looked up): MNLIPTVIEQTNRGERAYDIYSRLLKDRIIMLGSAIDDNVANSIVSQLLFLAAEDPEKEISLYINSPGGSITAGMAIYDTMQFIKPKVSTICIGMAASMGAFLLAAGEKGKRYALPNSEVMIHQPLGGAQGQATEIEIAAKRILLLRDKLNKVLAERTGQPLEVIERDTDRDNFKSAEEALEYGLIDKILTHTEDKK
#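 Purified B. subtilis ClpP, 10 microg/mL final in Tris/HCl pH8 with KCl, BSA, glycerol and Tween-20, cleaved an Abz/nitrotyrosine-quenched decapeptide. Fluorescence (ex 320, em 430) was read at 0 and 20 min at room temperature. Delta was normalized to 5.8 microM ADEP and DMSO/no-enzyme controls.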
# gsp ag: activates gsp, the McCune-Albright syndrome mutation. gsp mutant cells, cAMP HTRF, 30 min; control for the full effect not named in the record. Potency, µM (titrated, usually from 76.9 µM), for the others: top-dose activation (cAMP increase), hits mostly activators. 0.13% of 340,000 active. AID 624287; active = well fitted activation curve with a large enough effect; inconclusive = small, poorly fitted or top-dose-only effect, or another doubt; inactive = no such curve, though single readings can be large or run the other way; cell line not stated here;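 also: phosphodiesterase inhibitor Ro 20-1724 added with compounds to block cAMP breakdown; potency is read from the fitted curve at half-maximal effect; nearly all actives have a fitted effect of over 60% in size; about a fifth of the inactives were tested at one dose only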
#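 Cells in DMEM/10% FBS with G418 were pretreated with compounds in DMSO plus […] (300 uM stock) for 30 min at 37C. cAMP was measured by HTRF (cAMP-d2 plus anti-cAMP antibody-K) after 30 min at room temperature.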
# PINK1 expr mod: changes PINK1 expression; AID 624263; 0.2% of 410,000 active; PINK1 immunofluorescence, high-content cytometry, 24 h; Potency, µM (titrated, usually from 76.6 µM), for inactives: at the top dose activation (PINK1 increase), hits mostly activators; active = well fitted activation curve with a large enough effect; inconclusive = small, poorly fitted or top-dose-only effect; inactive = flat fitted curve, though single readings scatter; cell line not stated here;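 also: potency is read from the fitted curve at half-maximal effect; % of control where 0% means no effect; nearly all actives have a fitted effect of over 65% in size; a mitochondrial uncoupler was the plate control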
#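 Decision-based qHTS: stable cells, 24 h exposure to five compound concentrations, CCCP as control. Fixed cells stained for PINK1 plus nuclear, mitochondrial and cell markers, cytometer read.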
# Sfp PPTase inh: inhibitors of Bacillus subtilis Sfp phosphopantetheinyl transferase | 3.5% of 310,000 active | Q9F4F7 | Potency, µM, for inactives: max response, negative = inhibition, most hits filed as inhibitors | Biochemical Sfp PPTase activity, qHTS; active = well fitted inhibition curve with a large enough effect; inconclusive = small, poorly fitted or top-dose-only effect, or another doubt; inactive = no such curve, though single readings can be large or run the other way;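 also: the enzyme is Sfp with the accession as filed and its product quenches rhodamine fluorescence; potency is read from the fitted curve at half-maximal effect; 0% = enzyme reaction without inhibitor and -100% = no enzyme wells; top concentration of the series not given in the record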
#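 Sfp 15 nM + cpd, 15 min RT; start w/ rhodamine-CoA 5 uM, BHQ-2-YbbR 12.5 uM (final); 50 mM Hepes pH 7.6, 10 mM MgCl2, 0.01% NP-40, 0.01% BSA; read 525/598 nm at 0 and 30 min.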
# gsp antagonist: gsp mutant antagonism | gsp-mutant cells, cAMP HTRF, 30 min; control for the full effect not named in the record | Potency, µM (doses to about 76.9 µM), for the others: at the top dose activity change, negative = inhibition, hits mostly inhibitors | 0.4% of 340,000 active; active = falling curve of any shape with a large fitted effect; inconclusive = falling curve, mostly with a smaller effect; inactive = flat or rising curve; cell line not stated here;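 also: intracellular cAMP measured with PDE inhibitor Ro 20-1724 present during compound exposure; potency is read from the fitted curve at half-maximal effect; % is scaled to controls: 0 for no effect and ±100 for the full control effect; nearly all actives have a fitted effect of over 65% in size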
#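 Measurement of cellular cAMP by homogeneous time-resolved fluorescence following a 30 min compound exposure at 37C. The PDE inhibitor […] was present throughout; the assay buffer was DPBS with 0.05% BSA and 0.005% Tween 20.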
# Menin-MLL FL inh: displaces fluorescein MLL peptide from human menin; Fluorescence polarization, fluorescein-MLL peptide displacement from menin; FP activity change, % at 61.4 µM; 290,000 tested, under 10 active; AID 1766; inconclusive = falling polarisation curve, or a change in total fluorescence; inactive = total fluorescence flat and polarisation flat or rising; no compound was filed as active; the % refers to the polarisation; negative = inhibition;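 also: % of control where 0% means no effect; inhibitors lower the polarisation; unlabelled MLL peptide was the positive control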
# The depositor's hits bear a star; ? = inconclusive; nt = not tested or not shown; & = joins results of further samples; [ ] = dose if it differs, or a comment.
SMILES,D2 ag,ClpP mod,gsp ag,PINK1 expr mod,Sfp PPTase inh,gsp antagonist,Menin-MLL FL inh
COCc1ccc(C(=O)N2CCCC(C(=O)c3ccc(SC)cc3)C2)s1 (stereo unspecified),-1.3,-4.5%,23%,-2.5%,2%,-8%,-6.5
CC(Oc1ccc(C(=O)c2ccccc2)cc1)C(=O)Nc1ccc(S(N)(=O)=O)cc1 (stereo unspecified),-6.5,3.5%,4%,1.4%,13%,11%,-0.5
Cc1ccc(-c2nnc(SCC(=O)N/N=C/c3ccc(C)s3)n2-c2ccccc2)cc1,-0.7,1.4%,0%,-0.4%,-9%,-1%,3.3
CC1C/C(=C\c2ccccc2[N+](=O)[O-])c2nc3ccccc3c(C(=O)O)c2C1 (stereo unspecified),-1.6,nt,-6%[15.4 µM],-0.9%,-29%,-5%,-11
COC(=O)C1=C(C)N(Cc2ccccc2)C(=NCc2cccc(Cl)c2)N[C@H]1c1cccc(F)c1,3.0,-0.7%,nt,-2.2%,56µM*,9%,-4.4
CNC(=O)CSc1nc2cc(S(=O)(=O)Nc3ccccc3OC)ccc2o1,1.2,nt,-20%,1.7%,4%,-4%,3.8
NC(=O)C1CCN(C(=S)NC2CC3C=CC2C3)CC1 (stereo unspecified),-1.1,nt,?,0.7%,3%,9%,1.1
COc1ccc(-n2c(C)cc(/C=C(\C#N)C(=O)NCc3ccco3)c2C)cc1,-1.1,-0.7%,1%,5.7%,-2%,8%,2.7
COc1cccc(NC(=S)N2CCCN(Cc3ccc(F)cc3)C2)c1,0.6,nt,-12%,2.3%,-7%,-1%,-3.6
Nc1ccccc1SCC(=O)Nc1nc(-c2ccccc2)cs1,-2.2,-1.2%,-1%[15.4 µM],12%,-15%,-8%,-2.2
COc1ccc(N2CCN(C(=O)c3ccc4ccccc4n3)CC2)cc1,-0.4,nt,10%[15.4 µM],0.6%,16%,11%,-2.4
O=C(Nc1ccc(F)c(F)c1)C1CCCN(S(=O)(=O)c2cccc3nonc23)C1 (stereo unspecified),-2.6,-1.2%,?,?,7%,-2%,4.2
CCOC(=O)c1c(C)nc(C)c2c(=O)oc3ccccc3c12,-1.7,0.4%,4%,0.6%,14%,-16%,4.9
CCOC(=O)c1cc2occc2n1CCCN1C(=O)c2ccccc2C1=O,-0.5,0.4%,-48%[inhibitor],nt,-24%,-5%,5.3
COc1ccc(OC)c(C(=O)COC(=O)CN2C(=O)NC3(CCCCC3C)C2=O)c1 (stereo unspecified),3.1,0.8%,20%[15.4 µM],0.2%,nt,-9%,nt
CCn1c(CCNC(=O)c2cccs2)nnc1SCC(=O)Nc1nc(-c2ccccc2)cs1,-0.5,0.6%,-4%,7.2%[38.3 µM],11%,?,3.6
CC(=O)N1CCN(S(=O)(=O)c2cccc(C(=O)NC3CCCC3)c2)CC1,1.0,0.2%,1%,-0.5%,nt,5%,nt
O=C(c1ccc(C(=O)N2CCOCC2)nc1)N1CCOCC1,2.8,-0.8%,-14%,-1.1%,21%,10%,-5.9
CCOC(=O)N1CCN(S(=O)(=O)c2ccc(C(=O)Nc3ccc(F)cc3F)cc2)CC1,0.6,8.0%,5%,17%[38.3 µM],6%,12%,0.2
COCCn1c(C)cc(C(=O)COC(=O)c2ccc3ncsc3c2)c1C,2.0,1.0%,12%,-1.2%,6%,-6%,5.4
CN(Cc1cnn(C)c1)C(=O)c1cc(COc2c(F)cccc2F)on1,1.0,nt,0%[15.4 µM],1.4%,17%,-12%,-1.3
C[C@H](CO)N1C[C@H](C)[C@@H](CN(C)S(=O)(=O)c2cn(C)cn2)Oc2c(NS(=O)(=O)c3cccs3)cccc2C1=O,-1.0,-4.1%,nt,-0.4%,nt,4%,nt
CNC(=O)COC(=O)c1cc(-c2ccc(OC)cc2)nc2ccccc12,0.3,nt,-1%,0.6%,7%,-3%,-4.0
CCCCCCN1C[C@H](O)[C@@H](n2cc(-c3ccc(F)cc3)nn2)C[C@@H]1c1ccc(Cl)cc1,-14,-6.7%,?,16µM*,nt,nt,nt
CCCCNC(=O)C1(C)CCN1C(=O)c1cccc(OC(C)=O)c1C (stereo unspecified),-2.8,0.6%,nt,3.4%,nt,nt,nt
O=C([C@H]1O[C@@H](n2ccc(=O)[nH]c2=O)[C@H](O)[C@@H]1O)N1CCN(c2ccc(Cl)cn2)CC1,-3.9,4.8%,nt,0.0%,nt,nt,nt
Clc1ccc2nc(-c3ccc(Br)s3)cn2c1,-0.4,20µM*,19%,0.6%[38.3 µM],19%,3%,2.2
Cn1c(Cl)cnc1C(O)c1ccccc1 (stereo unspecified),0.5,-5.7%,6%,nt,5%,4%,3.5
COc1cc(C#N)c(N=C(SCC#N)N2CCOCC2)cc1OC,7.8,nt,-2%[15.4 µM],0.5%,18%,5%,-2.7
Cc1ccc2nc(C(Cl)(Cl)Cl)nc(N/N=C/c3ccc([N+](=O)[O-])cc3)c2c1,-2.5,nt,-8%[15.4 µM],12%,nt,5%,nt
CC(C)Oc1ccc(C(=O)NCC(=O)OCC(=O)N(C)Cc2cccs2)cc1,-2.0,nt,4%[15.4 µM],2.1%,19%,6%,1.1
CC1Cc2ccccc2N1C(=O)CN1C(=O)CN(C)C(=O)c2ccccc21 (stereo unspecified),0.3,-0.6%,-125%[inhibitor],0.0%,-5%,12%,-0.6
Cc1nonc1CC(=O)NC1CC(C)(C)Cc2c1cnn2-c1ccc(F)cc1 (stereo unspecified),0.0,1.3%,-96%[inhibitor],1.4%,26%,1%,nt
COc1ccc(-c2ccc(C#N)c(OC)n2)cc1,-2.1,nt,2%[15.4 µM],-0.4%,28%,12%,-2.2
Cc1ccn(-c2ccc([N+](=O)[O-])cc2)n1,-1.5,-4.4%,3%,-2.0%,2%,7%,-5.9
O=c1c2c(-c3cccs3)csc2ncn1-c1ccccc1,-2.6,-9.4%,-15%,0.4%,-3%,5%,1.0
CCOc1ccc(N2CC(C(=O)N3CC(C)OC(C)C3)CC2=O)cc1 (stereo unspecified),-3.4,nt,-2%[15.4 µM],4.9%,14%,5%,0.2
CSc1sc(C(=O)NC(=O)NCc2ccncc2)c(C)c1-c1ccon1,-2.8,0.3%,-6%[15.4 µM],-0.9%,0%,5%,?
COc1cc(OC)c(S(=O)(=O)NCc2cccnc2)cc1NC(C)=O,-6.7,-1.0%,26%,0.3%,-4%,5%,1.0
CCCCCc1nc(-c2nonc2N)no1,0.8,-3.0%,7%,-2.2%,11%,0%,2.8
CCNC(=S)NNC(=O)c1cc(-c2ccc(OC)cc2)nc2ccccc12,-7.7,14%,12%,4.1%,12%,-6%,2.2
CCOC(=O)c1cc2c(ccn2C)n1CC(=O)Nc1ccc(F)cc1,-7.3,-25%,4%,?,-27%,-1%,0.0
CC(C)CN(C(=O)c1cccc(S(=O)(=O)N2CCN(c3ccc(F)cc3)CC2)c1)C1CCS(=O)(=O)C1 (stereo unspecified),-3.9,-19%,-60%[inhibitor],3.1%,nt,5%,nt
Cc1ccc(S(=O)(=O)N2[C@@H](c3ccccc3)C(C(=O)O)=CC[C@H]2c2ccc(C(C)C)cc2)cc1,2.3,1.0%,3%,0.8%,nt,-4%,nt
COCCNC(=O)C1CC(=O)N(c2ccc(OC)cc2)C1c1ccc(OC)cc1 (stereo unspecified),-0.9,nt,-13%,2.8%,0%,-4%,-3.0
CCCCNCc1cc(OCC)c(OCC)cc1Br,2.0,nt,3%[15.4 µM],1.3%,2%,12%,-1.9
COC(=O)c1cn(C)c2ccc(S(=O)(=O)N3CC(C)CC(C)C3)cc2c1=O (stereo unspecified),0.7,-0.5%,2%,4.8%[38.3 µM],-8%,12%,?
Cc1cc(C)n(CC(=O)NN)n1,-3.4,-0.5%,-54%[inhibitor],0.3%,9%,4%,0.3
CN1/C(=C\C(=S)Nc2ccccc2)C(C)(C)c2ccccc21,-4.1,nt,-1%,11%,32µM*,-1%,0.6
COc1ccc(Cl)cc1NC(=S)NCCCN1CCCC1=O,-5.1,2.0%,5%,0.3%,-3%,5%,-0.9
# Later entries
SMILES,D2 ag,ClpP mod,gsp ag,PINK1 expr mod,Sfp PPTase inh,gsp antagonist,Menin-MLL FL inh
CC(O)CSc1nc2c(c(=O)[nH]c(=O)n2C)n1Cc1ccccc1Cl (stereo unspecified),9.3,nt,-12%,1.9%,-21%,1%,0.4
Cc1ccccc1-n1c(=O)cc(N2CCCCCC2)[nH]c1=O,-5.9,1.5%,?,2.4%,5%,4%,-0.5
O=C(CSc1nc(=O)n(CCN2CCOCC2)c2c1CCCC2)Nc1cccc([N+](=O)[O-])c1,-0.3,nt,-5%[15.4 µM],1.7%,nt,-14%,nt
CC(C)C[C@H]1CN([C@@H](CC(C)C)CN2CCCC2CN2C(=S)NC[C@@H]2Cc2ccc(O)cc2)C(=S)N1CC1CCCCCC1 (stereo partly specified),1.5,0.3%,nt,-0.1%,nt,-1%,nt
Cc1ccc(S(=O)(=O)N2CCOCC2)cc1NC(=O)c1ccc(F)cc1F,3.4,-0.2%,-1%,1.2%,nt,-19%,nt
C=CCN1C=C2C(=O)C(C)(OC(=O)C3CCCC3)C(=O)C(c3ccccc3)=C2C=C1CCCC(=O)OC (stereo unspecified),2.5,1.2%,nt,0.8%,-3%&1%,-11%,2.0[11.7 µM]
Nc1nonc1-n1nnc(C(=O)N/N=C/c2ccccc2Cl)c1-c1ccc2c(c1)OCO2,-2.7,?,-48%[inhibitor],-1.5%,16%,?,nt
COc1cc(NC(=O)C2CC3CCC2C3)c(OC)cc1Cl (stereo unspecified),-4.2,nt,-6%[15.4 µM],3.1%,nt,?,nt
Cc1noc(COc2ccccc2OCC(N)=O)c1Cl,-2.0,-0.9%,-4%,-1.3%,10%,-2%,11
O=C(COc1cccc2c1CCNC2=O)Nc1cccc(F)c1,-2.9,nt,12%[15.4 µM],2.4%,nt,0%,nt
